# Assay outcomes: PubChem, National Center for Advancing Translational Sciences (NCATS)
# TSHR ag – agonists of human thyroid stimulating hormone receptor | HEK293-CNG-TSHR cells (CNG channel as cAMP sensor), membrane potential dye, cAMP | Potency, µM (highest dose often 57.1 µM), for the others: at the highest dose activation, usual class: activators | 73,000 tested, 0.48% active; active = well fitted activation curve of enough size with the parental cells flat; inconclusive = any curve in the parental cells; inactive = parental cells flat and receptor cells flat or falling; also: potency is read from the fitted curve at half-maximal effect; % of control where 0% means no effect; weak receptor curves with flat parental cells got no call and are not listed
# Target sequence (P16473 whole entry, looked up): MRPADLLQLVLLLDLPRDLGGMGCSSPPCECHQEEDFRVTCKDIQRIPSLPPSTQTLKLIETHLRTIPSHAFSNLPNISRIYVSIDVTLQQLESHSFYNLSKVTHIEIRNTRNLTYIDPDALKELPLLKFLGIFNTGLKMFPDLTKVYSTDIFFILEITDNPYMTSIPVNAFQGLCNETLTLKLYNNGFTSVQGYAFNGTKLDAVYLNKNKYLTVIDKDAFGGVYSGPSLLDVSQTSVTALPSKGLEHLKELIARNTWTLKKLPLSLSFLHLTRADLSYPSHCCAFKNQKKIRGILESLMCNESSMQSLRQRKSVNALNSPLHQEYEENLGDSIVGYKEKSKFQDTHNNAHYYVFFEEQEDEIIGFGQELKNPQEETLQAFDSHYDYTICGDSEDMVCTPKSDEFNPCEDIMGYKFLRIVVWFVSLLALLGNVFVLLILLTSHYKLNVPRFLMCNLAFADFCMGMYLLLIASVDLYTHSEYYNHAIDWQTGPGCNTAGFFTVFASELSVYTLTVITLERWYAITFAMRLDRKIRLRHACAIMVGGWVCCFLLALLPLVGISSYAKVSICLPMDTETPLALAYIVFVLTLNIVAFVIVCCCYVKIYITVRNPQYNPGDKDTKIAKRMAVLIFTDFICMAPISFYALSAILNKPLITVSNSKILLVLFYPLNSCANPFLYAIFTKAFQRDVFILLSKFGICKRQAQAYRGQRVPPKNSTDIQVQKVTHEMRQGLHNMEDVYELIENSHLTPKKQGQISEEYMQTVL
#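 HEK 293 cells stably expressing TSHR and a cAMP-gated CNG channel; parental CNG-only cells as counterscreen. Cells preloaded 60 min with membrane potential dye plus 100 uM RO 20-1724, then compound 30 min; fluorescence read at 590 nm.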
# A488 fluor – A488 region autofluorescence | compound autofluorescence, A488 spectral region, dye equivalency; stronger effect = higher value | max dye equivalency, M | 59,000 tested, 0.1% active | AID 591; active = above 10 nM dye equivalent; inconclusive = 1 to 10 nM; inactive = 1 nM or less; about half of its hits are not listed in these tables;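 also: highest value over a series up to 38 µM; compound alone in buffer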
#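 Compounds pin-transferred into 100 mM Tris buffer, pH 8.0, incubated 15 min at room temperature, then imaged with 480 nm excitation/540 nm emission filters. Fluorescence converted to Alexa 488 dye-equivalent concentration via an on-plate six-point A488 standard curve.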
# Resorufin fluor – compound fluoresces in the resorufin spectral region; Compound fluorescence, resorufin region 547/598 nm, buffer; stronger effect = higher value; max dye-equivalent concentration, M; 59,000 tested, 0.04% active; AID 588; active = above 10 nM dye equivalent; inconclusive = 1 to 10 nM; inactive = 1 nM or less; a few of its hits are not listed in these tables; also: highest value over a series up to 38 µM
#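 Intrinsic fluorescence profiled in the resorufin window (ex 547 nm, em 598 nm) after 15 min at room temperature in pH 8.0 Tris buffer (100 mM); responses normalized against a six-point resorufin standard series as dye-equivalent concentration.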
# AID923 – qHTS Assay for Allosteric/Competitive Inhibitors of Caspase-1: Spectroscopic Profiling in AFC Spectral Region; compound fluorescence, AFC spectral region (405/520 nm); almost no hit is shown here; Potency, µM (doses to about 57.5 µM), inactives show at the highest dose fluorescence increase, hits mostly activators; 75,000 tested, 1.1% active; active = well fitted activation curve with a large enough effect; inconclusive = small, poorly fitted or top-dose-only effect;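 also: potency is read from the fitted curve at half-maximal effect; 0% is about no effect; scaled to a free AFC standard on each plate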
#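 Titrations up to 57 uM read every 20 sec for 3 min (405/520 nm) with 50 nM caspase 1 and 5 uM Ac-WEHD-AFC, pH 7.5 HEPES buffer. Fluorescence-vs-time intercept gave baseline, scaled against on-plate AFC standard.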
# A647 autofl – A647 region autofluorescence; Compound fluorescence, A647 channel (570/671 nm), Tris buffer; max dye-equivalent concentration, M; 59,000 tested, under 10 active; active means above 1 µM dye equivalent; inconclusive means 0.1 to 1 µM; inactive means 0.1 µM or less;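 also: values scaled relative to a standard on each plate; highest value over a series up to 38 µM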
#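 Spectral profiling of library compounds in pH 8.0 Tris: 15 min room-temperature incubation, single ex/em pair (570/671 nm), response normalized to Alexa 647 equivalents.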
# Numbers without * were called inactive; i = inactive; ? = inconclusive; . = not tested or not shown; & = joins results of further samples; [ ] = remark or other dose. A portion of the library; the hit share may differ from the screen's.
compound	TSHR ag	A488 fluor	Resorufin fluor	AID923	A647 autofl
O=C(NCCN1CCOCC1)c1cc(-c2ccccc2)on1	4%	i	i	0.1%	1.2e-08
CCOC(=O)c1cnc2c(C(F)(F)F)cccc2c1N1CCOCC1	0%	i	i	2.4%	7.6e-09
C=CCn1c(SCC(=O)c2cc(C)n(C(C)COC)c2C)nc2sc(C)c(C)c2c1=O (centres undefined)	26%	i	i	0.7%	2.8e-08
O=C(Nc1ccccc1F)c1ccncc1	-6%	i	i	-1.0%	1e-09
COc1ccc(C(=O)N2CCC[C@@]3(CCN(c4ncccn4)C3)C2)cc1	7%	i	i	-3.0%	1e-09
CC(O)COc1ccc(/C(=N/O)c2ccccc2)cc1 (centres undefined)	-5%	i	i	-0.9%	1e-08
COc1ccc(C(=O)COC(=O)CCn2nnc(-c3cccc(O)c3OC)n2)cc1	-3%	i	i	1.2%	3.1e-08
CSC1=NCCN1C(=O)Cc1ccc(Cl)cc1	3%	.	.	2.2%	.
Cn1c(CCNC(=O)c2ccccc2F)nnc1SCc1nc2ccccc2c(=O)[nH]1	-3%	i	i	0.2%	1e-09
CCCCn1nnc(NC(=O)Cc2ccc(Cl)cc2)n1	-11%	i	i	-1.9%	5.6e-09
COc1ccc2cc(CN(C(=O)Nc3ccccc3OC)C3CCCC3)c(=O)[nH]c2c1	8%	i	i	0.7%	8.9e-09
CCN(CC)S(=O)(=O)c1ccc(C(=O)Nc2ccc3c(c2)OCCO3)cc1	0%[11.4 µM]	i	i	-0.6%	1.3e-08
CCCCOc1ccc(S(N)(=O)=O)cc1	.	i	i	-0.8%	1.9e-09
CC1=CC(C)(C)Nc2ccc(OC(=O)CN3C(=O)CCC3=O)cc21	-2%	.	.	1.8%	.
CC(=O)Nc1nc(N2C(=O)c3ccccc3C2=O)n(-c2ccccc2)n1	0%	i	i	1.3%	1e-09
CC(=O)c1c(C)c2c(n1CCN(C)C)CCCC2	.	i	i	.	2.4e-08
O=C(CSc1nc2ccccc2o1)Nc1nc2c(s1)CCCC2	?	i	i	-1.7%	4.5e-09
CCCc1nc2sc3c(SCC(=O)NCc4ccco4)ncnc3c2c2c1CCC2	?	i	i	-1.5%	2.3e-09
Cc1ccc(C)n1-c1ncn[nH]1	3%	i	i	-1.6%	2.6e-08
Cc1csc2nc(CNS(=O)(=O)c3ccc4c(c3)CCCC4)cn12	2%	.	.	1.2%	.
O=c1[nH]c(=O)n([C@@H]2C[C@H](O)[C@H](CO)O2)cc1I	-17%[25.6 µM]	i	i	-3.4%[25.7 µM]	1.7e-08
NCCSCCc1ccccc1	7%[11.4 µM]	i	i	2.7%[11.5 µM]	1.4e-09
Cc1cccc(NS(=O)(=O)c2ccccc2)n1	12%[11.4 µM]	.	.	-1.0%	.
CCC1CCCCN1C(=O)c1cc2cc(Br)ccc2oc1=O (centres undefined)	13%	.	.	-1.5%	.
c1ccc(Sc2ncnc3c2oc2ccccc23)nc1	-2%	i	i	-0.8%	3.3e-09
CCOC(=O)C1CCCN(c2c(Nc3cccc(C)c3)c(=O)c2=O)C1 (centres undefined)	3%	.	.	-0.8%	.
CC1=C(C(=O)OCC(C)C)C(c2cccc(F)c2)N2C(=O)C(C)SC2=N1 (centres undefined)	?	i	i	-1.6%	2.8e-09
O=C(NCCN1CCOCC1)[C@H](Cc1ccccc1)N1C(=O)c2ccccc2C1=O	-14%	i	i	4.7%	1e-09
Cc1nc2ccc(CCO)cc2s1	0%	i	i	0.9%	6.5e-09
COc1ccc(CCN(C(=O)c2ccccc2)C2=CC3CCC(C2)N3C)cc1OC (centres undefined)	2%	i	i	0.6%	1e-09
CCc1ccc2oc(-c3cccc(NC(=O)c4cccnc4)c3)nc2c1	1%	i	i	-1.9%	3.8e-09
O=C(Nc1nc2ccc(S(=O)(=O)N3CCCCC3)cc2s1)C1CCCO1 (centres undefined)	1%	i	i	0.0%	2.6e-08
CC(c1nnc(SCC(=O)c2c(N)n(C)c(=O)n(C)c2=O)n1-c1ccc(Cl)cc1)N(C)C (centres undefined)	-2%	i	i	-0.2%	1e-09
Cc1nc2cc(C(F)(F)F)ccc2n1C1CCN(C(=O)N2CCOCC2)CC1	2%	i	i	-0.5%	1.2e-08
Cn1ncc(Cl)c1C(=O)Nc1cccnc1	0%	i	i	-1.2%	1e-09
O=C(c1ccc(F)cc1)c1ccc(N2CCCC2)cc1	?	.	.	19%	.
COc1ccccc1N1CCN(S(=O)(=O)c2cccc3nsnc23)CC1	1%	i	i	4.4%	1e-09
Cc1noc(C)c1C(=O)Nc1cccnc1	3%	i	i	-1.6%	1e-09
O=C1C2CCCN2C(c2ccccc2F)N1c1ccc(Cl)cc1 (centres undefined)	6%	i	i	1.7%	3.7e-09
COc1ccc(S(=O)(=O)N2CCCC(C(=O)O)C2)cc1 (centres undefined)	6%[11.4 µM]	.	.	-2.9%	.
COc1ccc(CN2C(=O)C3C4C=CC(C4)C3C2=O)cc1 (centres undefined)	24%	i	i	2.3%	1.4e-08
Cc1nc(SCc2c(F)cccc2Cl)c2c(=O)n(C)c(=O)n(C)c2n1	?	.	.	-1.7%	.
CN1CCN(CC(=O)Nc2c(C(=O)C3CC3)oc3ccccc23)CC1	?	i	i	1.4%	3e-08
CC1(C)CCC[C@@]2(C)[C@@H]1CC[C@]1(C)OC(=O)C[C@@H]21	?	i	i	.	1e-09
COC(=O)c1ccc(CSc2nc3scc(-c4cccs4)c3c(=O)[nH]2)o1	?	i	i	2.6%	2.5e-08
COc1ccc(S(=O)(=O)N(CC(=O)O)c2ccc(C)cc2)cc1	?	.	.	6.9%	.
Cc1ccc(C(=O)Nc2nnn(C)n2)cc1	2%	i	i	1.6%	1e-09
CCC1SC2=NC(C)=C(C(=O)OCCOC)C(c3ccc(C(=O)OC)cc3)N2C1=O (centres undefined)	.	i	i	.	3.2e-08
CO[C@@H]1COC(=O)[C@H]2CCCN2C(=O)C/C=C\[C@@H](C)[C@H](OC)COC(=O)[C@H]2CCCN2C(=O)C/C=C\[C@H]1C	12%[11.4 µM]	.	.	-0.9%[11.5 µM]	.
COc1ccccc1CNc1cc(-c2ccc(C(=O)N(C)C)cc2)ncn1	13%	i	i	5.3%	1e-09

# A second format for 5 compounds above.
# Below each SMILES: TSHR ag, A488 fluor, Resorufin fluor, AID923, A647 autofl
- O=C(c1ccc(F)cc1)c1ccc(N2CCCC2)cc1
    ?, ., ., 19%, .
- COc1ccccc1N1CCN(S(=O)(=O)c2cccc3nsnc23)CC1
    1%, i, i, 4.4%, 1e-09
- Cc1noc(C)c1C(=O)Nc1cccnc1
    3%, i, i, -1.6%, 1e-09
- O=C1C2CCCN2C(c2ccccc2F)N1c1ccc(Cl)cc1 (centres undefined)
    6%, i, i, 1.7%, 3.7e-09
- COc1ccc(S(=O)(=O)N2CCCC(C(=O)O)C2)cc1 (centres undefined)
    6%[11.4 µM], ., ., -2.9%, .

# Next compounds
compound	TSHR ag	A488 fluor	Resorufin fluor	AID923	A647 autofl
C[N+]1(NCC[N@@+]2(C)CCc3ccccc3C2)CCCCC1	4%[11.4 µM]	i	i	-1.2%[11.5 µM]	1.3e-09
O=C(CC(c1ccccc1)c1cc(Cl)ccc1O)N1CCOCC1 (centres undefined)	-3%	i	i	-0.3%	7e-09
CCCN1C(=O)C(O)(CC(=O)c2cccc(OC)c2)c2ccccc21 (centres undefined)	2%	i	i	-0.2%	2.5e-08
COc1ccc(N2CCN(C(=O)CCn3nnc4ccccc43)CC2)cc1	0%	i	i	-3.4%	1e-09
CN(C)c1nc(-c2ccccc2C(F)(F)F)nc2ccccc12	14%	i	i	2.5%	1e-09
CC(=O)NC(CCS(C)(=O)=O)C(=O)Nc1ccccc1C (centres undefined)	-1%[11.4 µM]	i	i	-1.3%	4e-08
CC1(C)CC2CC(C)(CN2C(=O)CN2C(=O)c3ccccc3C2=O)C1 (centres undefined)	12%	i	i	-0.9%	1e-09
CCOC(=O)c1[nH]c(C)c(C(=O)N2CCN(C(=O)OCC)CC2)c1CC	11%	i	i	1.3%	1e-09
CC(C)(Oc1ccc(Cl)cc1)C(=O)Nc1ccc2oc(-c3ccncc3)nc2c1	?	i	i	-1.4%	6e-09
CC(C)C(=O)Nc1ccc(N2CCN(C(=O)c3cccs3)CC2)cc1	-6%	i	i	-2.1%	6.8e-09
COc1ccc(C2CC(C(F)(F)F)n3nc(C(=O)NCc4cn(C)nc4C)c(Cl)c3N2)cc1 (centres undefined)	15%	i	i	-1.1%	2.1e-08
O=C(CSc1nnc(-c2cccs2)n1-c1ccccc1)N1CCCC1	4%	i	i	0.3%	4.5e-08
CS(=O)(=O)N(CC(=O)NCC1CCCO1)c1ccc(F)c(Cl)c1 (centres undefined)	3%	i	i	0.7%	3.9e-08
COc1cc(OC)cc(-c2nnc(SCc3c(F)cccc3Cl)o2)c1	9%	i	i	0.1%	9.4e-09
Cc1ccc(C(=O)Nc2nc3ccccc3c(=O)s2)cc1	5%	i	i	-0.7%	1e-09
O=C1N=C(N2CCOCC2)S/C1=C1\C(=O)N(Cc2ccccc2)c2ccccc21	-1%	.	.	2.3%	.
Cc1ccccc1-c1cncnc1N(C)Cc1ccco1	24%	i	i	1.1%	1.8e-08
Cc1cccc(-n2nnnc2SC(C)C(=O)NCCC2=CCCCC2)c1 (centres undefined)	?	i	i	1.2%	3.6e-08
CN(C)C=Nc1c(Br)cc(Br)c2nonc12	-5%	?	?	6.4%	2.3e-08
CC(C)(C)NC(=O)C(c1ccccn1)N(C(=O)c1ccc2c(c1)OCCO2)C1CCCC1 (centres undefined)	?	i	i	-0.9%	2.2e-08
CCC(=O)N1CCc2cc(S(=O)(=O)NCCC(=O)N3CCN(c4ccccn4)CC3)ccc21	6%	i	i	-1.5%	3.1e-08
CC1CCC2C(=O)OC(COc3ccc(C(C)(C)C)cc3)CN2C1c1ccc(Br)cc1 (centres undefined)	3%&-1%&1%&3%&12%[11.4 µM]	.	.	1.1%&-0.4%&0.4%&-0.2%&1.1%[11.5 µM]	.
COc1c2c(nc3ccccc13)O[C@@H]([C@@](C)(O)CO)C2	.	i	i	-0.6%	2.5e-09
CCn1c(-c2c[nH]c3ccccc23)n[nH]c1=S	0%	i	i	1.9%	1.5e-08
COc1ccccc1C1C(C(=O)NCc2ccccc2)=C(C)Nc2ncnn21 (centres undefined)	.	i	i	-1.3%	3.8e-08
Cc1ccc(N2CCN(S(=O)(=O)N(C)C)CC2)cc1Cl	5%	i	i	0.0%	1e-09
CCOC(=O)N1CCN(c2cc(=O)n(-c3ccc(OCC)cc3)c(=O)[nH]2)CC1	13%	i	i	-0.2%	1e-09
O=C(O)C1C2C=CC(O2)C1C(=O)NCc1ccc2c(c1)OCO2 (centres undefined)	4%	i	i	1.9%	2.9e-09
COc1cc(S(=O)(=O)N2CCOCC2)cc(C(=O)c2nccn2C)c1OC	-4%	i	i	1.6%	1e-09
CNc1nc(CC(C)=O)ns1	1%	i	i	0.4%	3.8e-08
COC(=O)c1cccc(NC(=O)Cc2coc3cc(OC)ccc23)c1	?	i	i	-1.3%	1.1e-08
CCOC(=O)N1CCN(Cc2nc3c(c(=O)n(C)c(=O)n3C)n2Cc2ccccc2)CC1	?	.	.	-1.6%	.
COc1ccc2c(c1OC)C(=O)OC2CC(=O)c1ccc(O)cc1 (centres undefined)	0%	.	.	0.2%	.
